HSD17B inhib = blocks hydroxysteroid 17-beta dehydrogenase activity | Q99714 | Potency, µM (top dose mostly 57.1 µM), without a hit: at the highest dose activity change, negative = inhibition, actives largely listed as inhibitors | 75,000 tested, 7.6% active | recombinant HSD17B10, NADH fluorescence kinetic; many of its hits are not listed in these tables | AID 893; active = well fitted inhibition curve with a large enough effect; inconclusive = small, poorly fitted or top-dose-only effect; inactive = no such curve, though single readings can be large or run the other way;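 note: the protocol describes HADH2 (HSD17B10) and not the HSD17B4 of the title; nearly all actives have a fitted effect of over 70% in size; most hits overshoot -100% by far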
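His-tagged E. coli-expressed HADH2 at 20 nM in 100 mM Tris-HCl pH 9.0 with 0.01 % Tween-20, preincubated 15 min with compound at room temperature. Reaction with 1 mM NAD+ and 90 uM beta-hydroxybutyryl coenzyme A; NADH fluorescence (360/450 nm) read kinetically over 4 min, last minus first point.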
An asterisk follows results filed as active; u = inconclusive; & = joins results of further samples; [ ] = another dose, or the depositor's remark. % is set by controls: 0 for no effect and ±100 for the full control effect; potency is the fitted concentration of half-maximal effect. Not all compounds are listed. The share of hits here may be higher or lower than overall.

#	SMILES	HSD17B inhib
1	CCSc1ccccc1C(=O)NCc1ccc2c(c1)OCO2	1.8%
2	Cc1ccc2nc(NC(=O)CN(C)S(=O)(=O)c3ccc(Br)s3)sc2c1	12.6µM*
3	O=C(NCCCN1CCN(c2ccccc2F)CC1)C1CCN(S(=O)(=O)c2cccs2)CC1	1.1%
4	NC(=O)CSC1=Nc2ccccc2C2=NC(CCC(=O)NCc3ccc(F)cc3)C(=O)N12 (centres undefined)	31.6µM*
5	CCC(C)(C)n1nnnc1C(c1cccc(C#N)c1)N1CCN(c2cc(C)ccc2C)CC1 (centres undefined)	12.6%
6	Cn1cccc1C(=O)N1CCC2(CC1)CN(c1cccc(-c3ccccc3)c1)C2	u
7	COc1ccc(N(C(=O)Cn2nnc3ccccc32)C(C(=O)NCc2ccco2)c2cccnc2)cc1 (centres undefined)	5.6%
8	C=C(C)CSc1nnc(-c2cccc(Cl)c2)n1N	-0.6%
9	CN(C)S(=O)(=O)Nc1ccccn1	6.6%[11.4 µM]
10	CCn1c2ccccc2c2nnc(SCC(=O)OCN3C(=O)c4ccccc4C3=O)nc21	-4.1%
11	CCOC(=O)C1CCCN(c2c(N3CCN(C4CCCCC4)CC3)c(=O)c2=O)C1 (centres undefined)	1.1%
12	COc1ccc(N2CCN(c3cc(=O)n(Cc4ccc(F)cc4)c(=O)[nH]3)CC2)cc1	-1.2%
13	Cn1cccc1Cc1nnc(SCC(=O)NCC2CCCO2)n1-c1ccc(F)cc1 (centres undefined)	9.4%
14	COC(=O)c1[nH]c2c(c1C)C(=O)CC(c1cccs1)C2 (centres undefined)	2.6%
15	CCCS(=O)(=O)N1CCC(C(=O)NCc2ccccc2Cl)CC1	-1.4%

Next section.
#	SMILES	HSD17B inhib
16	O=C(c1cccc(Br)c1)N1CCN(C(=O)N2CCCCC2)CC1	15.3%
17	Cc1cccc(CNc2ccnc(-c3cccc(C#N)c3)n2)c1	u
18	CC(=O)Nc1ccc(S(=O)(=O)N2CCSC2C(=O)O)cc1 (centres undefined)	6.6%
19	CC(C)COC(=O)c1cc(=O)[nH]c2ccccc12	-22.7%
20	O=C(COc1ccc(-c2nnco2)cc1)N1CCN(S(=O)(=O)c2ccc3ccccc3c2)CC1	-3.0%
21	COc1nc(C)ccc1-c1noc(-c2ccco2)n1	-1.6%
22	O=C(O)c1ccc(Nc2ccnc3cc(Cl)ccc23)cc1O	-9.4%[11.4 µM]
23	CC1=Nn2c(nnc2-c2ccco2)SC1	0.8%
24	COc1ccc(C(=O)c2ccc(N(C)C)cc2)c(OC)c1	-3.7%
25	CCOC(=O)c1csc(NC(=O)CSc2nnnn2-c2ccc(OC)cc2)n1	3.4%
26	CC(c1ccccc1F)n1cc(C(=O)NCCc2ccco2)nn1 (centres undefined)	1.3%
27	CNC(=O)NC(=O)COC(=O)CCCOc1ccc(OC)cc1	10.2%
28	CCC(C(=O)NC1CCCCC1)N(CC1CCCO1)C(=O)CNS(=O)(=O)c1ccc(OC)cc1 (centres undefined)	1.7%
29	NCC1O[C@H](O[C@@H]2C(O)[C@H](O[C@H]3OC(CO)C(O)C(N)C3O)[C@@H](N)C[C@H]2N)[C@@H](N)CC1O (some centres undefined)	4.7%
30	CCOC(=O)C1CCCN(C(=O)c2cc3c(C)nc4ccccc4c3o2)C1 (centres undefined)	-8.8%

Going on with the list:
#	SMILES	HSD17B inhib
31	CCN1C(C)=C(C(=O)OC)C(c2ccccc2)N2C(=O)[C@](O)(C(=O)OC)CC(C(C)=O)=C12 (some centres undefined)	6.3%[11.4 µM]
32	CCN(CC)S(=O)(=O)c1ccc(N2CCCC2)c(C(=O)OCC(=O)/C(C#N)=C(\C)N)c1	-2.8%
33	COc1ccc(CCN2CNc3c(c(=O)n(C)c(=O)n3C)C2)cc1OC	1.0%
34	COC(=O)C1=C(C)N(Cc2ccccc2)C2=C(C(=O)c3ccccc3)C(c3ccccc3)[C@@](O)(C(=O)OC)C(=O)N2C1c1ccccc1 (some centres undefined)	5.4%&18.2%[11.4 µM]
35	O=C(CCn1nnc2ccccc21)Nc1nnc(Cc2ccccc2)s1	-26.9%
36	COCCCNC(=O)CSc1nc2ccccc2c(=O)n1CCCC(=O)NCC1CCCO1 (centres undefined)	4.3%
37	COC(=O)c1cc2occc2n1Cc1c(F)cccc1Cl	4.0%
38	COCCn1c(=O)c(-c2ccc(F)cc2)nc2cnc(Oc3ccccc3)nc21	u
39	Cc1ccc(C)c(N2CC(=O)N(c3cc(C)ccc3C)CC2=O)c1	10.5%
40	O=C(c1ccccc1Cl)N1CCC(c2nc3c(nnn3Cc3ccco3)c(=O)[nH]2)CC1	-2.9%
41	CC(NC(=O)c1ccccc1Cl)C(=O)O (centres undefined)	7.7%
42	CO[C@H]1COC(=O)[C@@H](Cc2ccccc2)NC(=O)[C@@H](C)COC(=O)C/C=C\[C@@H]1C	-0.8%[11.4 µM]
43	CCCN1CCN(C(=O)Cn2c(=O)oc3cc(S(=O)(=O)NCc4ccccc4)ccc32)CC1	-1.2%
44	O=C(c1ccccc1)c1ccc(OCC(O)CN2CCCCC2)cc1 (centres undefined)	6.2%
45	C=C(C)C1COc2cc3oc(=O)ccc3cc2O1 (centres undefined)	25.1µM*

Next section:
#	SMILES	HSD17B inhib
46	CCS(=O)(=O)c1ccc(O)c(NC(=O)c2cc(OC)c(OC)c(OC)c2)c1	-5.8%
47	CN(C)c1ccc(C2NCCS2)cc1 (centres undefined)	-18.3%
48	Fc1ccc(Nc2ccnc(-c3ccccc3C(F)(F)F)n2)cc1	3.7%
49	COc1ccc2cnn(Cc3ccccc3)c(=O)c2c1OC	25.1µM*
50	COC(=O)c1ccc(NC(=O)CN(C)S(=O)(=O)c2ccc(OC)c(C)c2)cc1	-5.5%
51	CNS(=O)(=O)c1cccc(C(=O)OC2CCCCC2=O)c1 (centres undefined)	-1.9%
52	Cc1cc(C)n(-c2nc3ccccc3nc2N2CCN(C(=O)c3ccccc3)CC2)n1	0.6%
53	COc1ccc(C(=O)Nc2ccncc2)cc1OC	-3.1%
54	O=c1c(-c2ccc(Cl)cc2)nc2cncnc2n1Cc1ccccc1Cl	u
55	COCCCn1c(SCC(=O)N(C)C)nnc1-c1ccccc1	4.6%
56	Cc1cc(C)c2c(=O)[nH]c(SCC(=O)N3CCCCC3)nc2n1	u
57	Cc1cccc(NC(=O)Cn2cccc2)c1	-4.6%
58	CC1CCCC(C(=O)OCc2ccccc2)N1 (centres undefined)	-6.7%
59	CCOc1ccc(C(=O)Nc2c(C(N)=O)oc3ccccc23)cc1	24.2%
60	Cc1ccc(Cn2ccc(NC(=O)c3cc(-c4cccs4)on3)n2)cc1	9.2%

More compounds follow.
#	SMILES	HSD17B inhib
61	Cc1nnc(NC(=O)CSc2nc3c(c(=O)n2CCc2ccccc2)SC(C)C3)s1 (centres undefined)	25.1µM*
62	COc1ccc(-c2cc(C(=O)NCCc3ccccc3)no2)cc1OC	u
63	O=C(c1cnccn1)N1CCC[C@@]2(CCN(Cc3ccncc3)C2)C1	-0.8%
64	Cn1c(=O)c2c(SCC(=O)N3CCCc4ccccc43)nc(C3CC3)nc2n(C)c1=O	1.0%
65	CC(=NCc1ccccc1)C1=C(O)COC1=O	-17.0%
66	c1ccc(Cn2ncc3c2ncn2nc(-c4ccncc4)nc32)cc1	5.2%
67	O=C1C=C[C@@H](O)[C@H]2[C@@H]3C(=O)N(Cc4ccccc4)C(=O)[C@@H]3CC[C@H]12	0.4%[11.4 µM]
68	CCCS(=O)(=O)N1CCCC(C(=O)NCCCN2CCN(c3ccc(F)cc3)CC2)C1 (centres undefined)	0.1%
69	CCOC(=O)COc1ccc(S(=O)(=O)NCc2ccncc2)cc1	2.4%
70	CCCC(=O)NC(C)C(c1cccs1)N1CCN(c2ccccc2)CC1 (centres undefined)	10.5%
71	Cc1ccc(SCCC(=O)N2CCCC2)cc1	10.3%
72	COC(=O)[C@@]1(Cc2ccccc2)[C@H]2c3cc(C(=O)N4CCCC4)n(Cc4ccc(S(C)(=O)=O)cc4)c3C[C@H]2CN1C(=O)c1ccccc1	-0.3%
73	Cc1sc2nc(SCC(=O)Nc3c(C)n(C)n(-c4ccccc4)c3=O)n(C)c(=O)c2c1C	u
74	CCOC(=O)C1CCN(C(=O)Cn2cc(C#N)c3ccccc32)CC1	-2.3%
75	CCNc1nc(C)c2cc(Br)c(=O)n(CC)c2n1	3.16µM*

Given field by field: entries from further up.
6: Cn1cccc1C(=O)N1CCC2(CC1)CN(c1cccc(-c3ccccc3)c1)C2
  HSD17B inhib = u

7: COc1ccc(N(C(=O)Cn2nnc3ccccc32)C(C(=O)NCc2ccco2)c2cccnc2)cc1 (centres undefined)
  HSD17B inhib = 5.6%

8: C=C(C)CSc1nnc(-c2cccc(Cl)c2)n1N
  HSD17B inhib = -0.6%

9: CN(C)S(=O)(=O)Nc1ccccn1
  HSD17B inhib = 6.6%[11.4 µM]

(further entries)
#	SMILES	HSD17B inhib
76	CC1C=CCC2C(=O)N(c3cccc(C(=O)N4CCN(c5ccc(F)cc5)CC4)c3)C(=O)C12 (centres undefined)	-15.9%
77	Cc1ccc(C)c(S(=O)(=O)C(C#N)c2nc3ccccc3nc2N2CC(C)OC(C)C2)c1 (centres undefined)	-2.0%
78	Cc1ccc(C(C)C)c(OCCn2c(=O)oc3ccccc32)c1	-2.5%
79	C=CCOc1ccc2c(c1)c(S(=O)(=O)c1ccc(C)cc1)cn2COC	-20.2%
80	Cc1nn(CCc2nc(-c3ccco3)cs2)c2[nH]c(=O)cc(C(F)(F)F)c12	25.1µM*
81	CN1CCc2ccccc2C1C1CCNCC1 (centres undefined)	18.4%
82	O=C1CC(N2CCOCC2)C(=O)N1c1cccc(Cl)c1 (centres undefined)	-2.0%
83	CCOC(=O)C1CCN(C(C(=O)Nc2ccc3c(c2)OCCO3)c2ccccc2)CC1 (centres undefined)	2.8%
84	O=C1c2c(O)cccc2Cc2cccc(O)c21	u
85	NC(=O)C1CCN(C(=O)CN2CCc3ccccc32)CC1	0.6%
86	CCN(CC)S(=O)(=O)c1ccc(NC(=O)Cn2c(=O)oc3ccccc32)cc1	5.6%
87	Nc1nc(NCCc2ccc(O)cc2)nc2nc(-c3ccco3)nn12	-4.7%
88	CCCCC(C(=O)O)C(C)CC(=O)Nc1ccn(-c2ccccc2)n1 (centres undefined)	-14.5%
89	N#C/C(=C\Nc1ccc2c(c1)OCCO2)c1nc2ccccc2[nH]1	-3.4%
90	COc1cccc(C2C(C(=O)OC(C)C)=C(C)Nc3ncnn32)c1 (centres undefined)	-10.3%

(continued)
#	SMILES	HSD17B inhib
91	CC(C)(C)C(=O)NC(C(N)=O)=C(Cl)Cl	5.2%
92	Cc1cc(=O)oc2c(N)c(O)ccc12	-9.4%
93	CCCC(c1nnnn1C(C)(C)CC)N(CCCO)Cc1cc2cc(C)cc(C)c2[nH]c1=O (centres undefined)	0.3%
94	COc1ccc(OC)c(C(C)NC(C)=O)c1 (centres undefined)	5.0%
95	CCN(CC)S(=O)(=O)c1ccc2oc(C(=O)N3CCCCCC3)c(C)c2c1	-19.4%
96	COc1cccc(-n2c(C)nc3c(cnn3-c3ccc(Cl)cc3)c2=O)c1	11.2%
97	COc1ccc(S(=O)(=O)N2CCCC2C(=O)Nc2nccs2)cc1 (centres undefined)	6.3%
98	Cc1cnc(CNc2ncnc3ccc(-c4ccccc4CN(C)C)cc23)cn1	4.0%
99	CCOC(=O)c1c(C)oc2c1cc(O)c1ccccc12	-14.7%
100	COc1ccc(Cc2n[nH]c(=O)c3ccccc23)cc1OC	13.4%
101	CCCc1cc(=O)[nH]c(SCc2ccccc2)n1	8.7%
102	O=C(Nc1ccc(CN2CCOCC2)cc1)c1ccc(-c2ccc(Br)cc2)o1	u
103	CCC(=O)Nc1ccc(Cl)c(NC(=O)c2cccnc2)c1	9.8%
104	CCOC(=O)C1=C(N)OC2=C(C(=O)CCC2)C1c1cccs1 (centres undefined)	-3.8%
105	CCCOC(=O)CSc1nc(N)c(C#N)c(CC)c1C#N	25.1µM*

Another view of some results above:
[84] O=C1c2c(O)cccc2Cc2cccc(O)c21
  HSD17B inhib = u

[85] NC(=O)C1CCN(C(=O)CN2CCc3ccccc32)CC1
  HSD17B inhib = 0.6%

Further structures follow.
#	SMILES	HSD17B inhib
106	COc1ccc(OCc2nn3c(-c4ccccn4)nnc3s2)cc1	4.8%
107	O=C(OCCCc1ccncc1)c1ccc(S(=O)(=O)N2CCOCC2)cc1	6.0%
108	CCN(CC)c1ccc(NC(=O)c2cncc(Br)c2)cc1	-4.0%
109	O=C(O)c1cc(-c2ccc(Cl)cc2)n[nH]1	-2.1%
110	Cn1c(=O)c2c(nc(CN3CCCCC3)n2CCc2ccccc2)n(C)c1=O	10.5%
111	CC(=O)NC(Cc1ccc(F)cc1)C(=O)NC1CCN(c2nnnn2-c2ccccc2)CC1 (centres undefined)	6.4%
112	COc1ccc(-n2nnnc2SCC(=O)c2ccc3c(c2)OCCO3)c(OC)c1	4.6%
113	CCOc1ccc(C2C(C(=O)O)c3ccccc3C(=O)N2CCN2CCOCC2)cc1 (centres undefined)	-6.3%
114	Cc1ccc(C2=Nc3ccccc3S[C@@H](c3cccc([N+](=O)[O-])c3)C2)cc1	-11.4%[11.4 µM]
115	CC(NS(C)(=O)=O)C(c1cccs1)N1CCN(C)CC1 (centres undefined)	0.4%

Screening data as filed in PubChem BioAssay.
